Screens as filed in PubChem.
AID504770: growth inhibition of E. coli YBA685, primary screen, V. cholerae RctB inhibitors | z-score (no concentration beside the values) | E. coli YBA685 rctB-dependent plasmid, OD600 growth, 3 h; hits give low values | AID 504770, 2011 | 0.27% of 130,000 active;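 active = z-score under -2 on both plates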;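 also: wells of about 30 µL received 100 nL stock; score is relative to mean and SD of the test wells; the first replicate is given; strong numbers were not always called active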
CapD inh: Bacillus anthracis CapD inhibitors, primary screen, biochemical, fluorescence intensity. CapD gamma-glutamyltranspeptidase (Bacillus anthracis Ames Ancestor). purified CapD enzyme, fluorescence intensity read-out; hits give low values; some hits fall short of the stated cut. z-score (no concentration beside the values). 0.23% of 140,000 active. AID 492967, 2010;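 active = z-score under -4 in either of two replicates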;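 also: stock transfer was 100 nL into about 40 µL; score is relative to mean and spread of the plate; one replicate is shown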
* hit, by the source's call.

Screening O=C(/C=C/c1cccs1)N(CC1CCCO1)c1nc2ccccc2s1 (configuration not stated) returned AID504770 0.15.
`Cc1cc(C)c(C#N)c(SCCS(=O)(=O)c2nc3ccccc3s2)n1` gave CapD inh -0.53.
For Cc1cc(C(=O)Nc2c(C)nn(Cc3ccccc3)c2C)on1 the results were AID504770 -0.45 and CapD inh -0.74.
`COc1cc(C(=O)Nc2ccc(-c3nc4cc(Cl)cc(Cl)c4o3)cc2)cc(OC)c1OC` gave CapD inh 14.
Screening Clc1cccc(Cc2nn[nH]n2)c1 returned AID504770 -0.7 and CapD inh 0.33.
For O=c1[nH]c(NC2CCN(S(=O)(=O)c3ccc(C(F)(F)F)cc3)CC2)nc2c1CCCC2 the results were AID504770 -0.25.
`CN(Cc1c(O)ccc2c3c(c(=O)oc12)CCC3)C1CCCCC1` gave CapD inh 44.
Screening CCc1cc(C(=O)Cc2nc3ccccc3[nH]2)c(O)cc1O returned AID504770 1.4 and CapD inh 40.
Screening COc1cc([N+](=O)[O-])c(OC)cc1SCC(=O)NNS(=O)(=O)c1ccc(Cl)cc1 returned CapD inh -1.7.
For C=CCSc1nnc(Cn2nnc3ccccc32)n1-c1ccc(Cl)cc1 the results were AID504770 -0.75 and CapD inh -0.55.
Cc1onc(-c2ccccc2Cl)c1C(=O)Nc1ccccc1Cl was read as AID504770 0.15.
O=C(CCCN1C(=O)CSc2ncccc21)N1CCc2ccccc21 was read as AID504770 -0.85 and CapD inh -0.29.
For COC(=O)c1c(C)oc2ccc(N(C(=O)c3ccc(C)cc3)S(=O)(=O)c3ccc(Cl)c([N+](=O)[O-])c3)cc12 the results were CapD inh -1.1.
Screening COC(=O)c1ccccc1COn1c(=O)c[n+]([O-])c2ccccc21 returned AID504770 -0.85 and CapD inh 0.75.
CS(=O)(=O)c1ccc(-c2nnn(Cc3ccccc3)n2)cc1 was read as AID504770 -0.8 and CapD inh -0.06.

Copied from the listing (seven entries):
Screening COc1cc([N+](=O)[O-])c(OC)cc1SCC(=O)NNS(=O)(=O)c1ccc(Cl)cc1 returned CapD inh -1.7.
For C=CCSc1nnc(Cn2nnc3ccccc32)n1-c1ccc(Cl)cc1 the results were AID504770 -0.75 and CapD inh -0.55.
Cc1onc(-c2ccccc2Cl)c1C(=O)Nc1ccccc1Cl was read as AID504770 0.15.
O=C(CCCN1C(=O)CSc2ncccc21)N1CCc2ccccc21 was read as AID504770 -0.85 and CapD inh -0.29.
For COC(=O)c1c(C)oc2ccc(N(C(=O)c3ccc(C)cc3)S(=O)(=O)c3ccc(Cl)c([N+](=O)[O-])c3)cc12 the results were CapD inh -1.1.
Screening COC(=O)c1ccccc1COn1c(=O)c[n+]([O-])c2ccccc21 returned AID504770 -0.85 and CapD inh 0.75.
CS(=O)(=O)c1ccc(-c2nnn(Cc3ccccc3)n2)cc1 was read as AID504770 -0.8 and CapD inh -0.06.

More structures follow:
Screening CCS(=O)(=O)N1CCc2cc(C(=O)CSc3n[nH]c(=O)n3Cc3ccccc3)ccc21 returned AID504770 0.55.
For CC(=O)NCCc1ccc(C(=O)CSc2nnc(C3CC3)n2C2CC2)cc1 the results were AID504770 -1.2.
For CCOc1ccc(-c2nnc(N3CCCCC3)c3ccccc23)cc1 the results were AID504770 -0.7 and CapD inh 0.28.
`Nc1nc(F)cc(N2CCOCC2)n1` gave CapD inh 0.22.
For O=C(COC(=O)c1cccc(O)c1)c1cccc(C(F)(F)F)c1 the results were AID504770 -0.75 and CapD inh -0.62.
Screening CSc1nc2ccccc2n1CC(=O)NC(c1ccccc1)c1ccccc1 returned CapD inh -0.2.
CN(CCCNS(=O)(=O)c1ccc(C#N)cc1)c1ccccc1 was read as CapD inh 0.2.
Screening O=C(NC(c1ccccc1)c1ccccc1)C1CC1 returned AID504770 -0.45 and CapD inh 0.05.
O=C(/C=C/c1ccco1)Nc1nc(-c2ccc3c(c2)OCO3)cs1 was read as AID504770 1.1 and CapD inh -0.05.
`CNC(=O)C(C)n1nc(C)c2c(C)n(-c3ccccc3)nc2c1=O` (configuration not stated) gave AID504770 0.7 and CapD inh 0.13.
CCCN(CCC)S(=O)(=O)c1c[nH]c(C(=O)OC)c1 was read as AID504770 -0.85 and CapD inh -1.1.
For CC(=O)Nc1nc(SCc2ccccn2)[nH]c(=O)c1NC(=O)c1ccccc1 the results were AID504770 0.35.
CC(C)CNc1ncnc2c1sc1nc(C(C)C)c3c(c12)CC(C)(C)OC3 was read as AID504770 -0.25 and CapD inh -0.79.
Screening Cc1ccc(C(=O)N/C(=C\c2ccco2)C(=O)NCc2ccco2)cc1 returned AID504770 -0.8 and CapD inh -2.2.
`CC(=NCCSCc1nc[nH]c1C)c1c(C)[nH]n(-c2nc3ccccc3s2)c1=O` gave AID504770 -0.1.

In the list so far, 2 contain a cyano group:
`Cc1cc(C)c(C#N)c(SCCS(=O)(=O)c2nc3ccccc3s2)n1` gave CapD inh -0.53.
CN(CCCNS(=O)(=O)c1ccc(C#N)cc1)c1ccccc1 was read as CapD inh 0.2.

More records follow:
COCCn1c(-c2ccc(C(C)(C)C)cc2)n[nH]c1=S was read as AID504770 0.4 and CapD inh -1.1.
For Cc1nc(N2CCN(c3ccccn3)CC2)c2c(C)c(C(=O)Nc3ccc4c(c3)OCCO4)sc2n1 the results were CapD inh -0.58.
Cc1ccc(S(=O)(=O)N(CCC#N)CCN2CCCC2)cc1 was read as AID504770 -0.25 and CapD inh -0.47.
CN(C)P1(=S)C2=C(N3CCCCC3)CC(C)(C)CC2=NN1c1ccccc1 (configuration not stated) was read as AID504770 2.
Screening CC(Oc1ccc(Cl)cc1)c1ccnc2c(C#N)cnn12 (configuration not stated) returned AID504770 0.8 and CapD inh 3.1.
`O=c1[nH]cnc2c1nnn2Cc1ccccc1Cl` gave AID504770 0.5 and CapD inh -0.1.
For Ic1cccc(CSc2nnnn2-c2ccc3c(c2)OCO3)c1 the results were AID504770 1.1 and CapD inh 0.09.
For CCSC1=N/C(=C\c2ccc(C)s2)C(=O)S1 the results were AID504770 -0.4 and CapD inh -0.15.
`Cn1cnnc1SCc1ccc(C(=O)n2ncc(C#N)c2N)cc1` gave AID504770 -0.9.
`COc1ccc(OC)c(S(=O)(=O)NC(C)(C)C)c1` gave AID504770 -0.7 and CapD inh -0.52.
`CCCc1ccc(-c2nc(NC(=O)CSCC(=O)Nc3cc(C)on3)sc2C)cc1` gave AID504770 -0.5.
For c1ccc(-c2nnc(SCc3cn4ccccc4n3)o2)cc1 the results were AID504770 -1.5 and CapD inh -0.37.
For CC(C)Sc1ccc2nnc(-c3cccc(F)c3)n2n1 the results were AID504770 -1.1 and CapD inh -0.5.
Screening CCCCN(C)C(=O)c1cc2cc3ccc(OC)cc3nc2o1 returned AID504770 -0.3 and CapD inh 7.
Screening CCOc1ccc(C(=O)Nc2nnc(-c3ccccc3)s2)cc1 returned AID504770 2.1 and CapD inh 0.15.
CC(C)NC(=O)c1cccc2cccc(Sc3ccccc3)c12 was read as AID504770 -0.6 and CapD inh 1.
Screening O=C(CN1CCOCC1)Nc1c(-c2ccccc2)c2cc(Br)ccc2[nH]c1=O returned AID504770 0.2.
`COc1cccc(C(=O)N2CCN(C(=O)c3ccccc3)CC2)c1` gave AID504770 0.65 and CapD inh 0.41.
For O=C(Nc1nnc(CCS(=O)(=O)c2ccc(Cl)cc2)s1)c1ccc(Cl)cc1 the results were CapD inh -0.32.
`Cc1ccc(CNc2n[nH]c(=S)s2)cc1` gave AID504770 0.5 and CapD inh -0.17.
CCn1cc(C(=O)NCCC2=CCCCC2)c2cc(OC)c(OC)cc2c1=O was read as AID504770 -0.6 and CapD inh -0.4.
COc1ccc(Cl)cc1S(=O)(=O)N1CCCC1C(N)=O (configuration not stated) was read as CapD inh 0.92.
COC(=O)c1sc(N)c(C(=O)OC)c1Cn1c(Cl)nc2c1c(=O)n(C)c(=O)n2C was read as AID504770 0.1.
Screening O=C(Cc1ccccc1)N/N=C/c1ccncc1 returned AID504770 -0.1 and CapD inh 0.08.
Screening COc1cc(CCN2C(=O)CCC2(C)C(=O)N2CCCC2)cc(OC)c1OC (configuration not stated) returned AID504770 0.85 and CapD inh 0.055.
Screening O=C(CN1C(=O)/C(=C\c2ccc(F)cc2)Oc2ccccc21)N1CCCC1 returned AID504770 2.3 and CapD inh 9.1.
Screening O=C(CSc1nnnn1Cc1ccccc1)Nc1ccccc1Oc1ccccc1 returned AID504770 -0.15 and CapD inh 0.34.
CCCC1CCC(c2ccc(OC(=O)c3cccnc3)cc2)CC1 (configuration not stated) was read as AID504770 0.35 and CapD inh 4.7.
FC(F)(F)c1ccnc(NC2CCN(Cc3ccccc3)CC2)n1 was read as CapD inh 2.9.
For CC(C)c1ccc2nc(SCC(=O)NC(C)(C)C)c(C#N)cc2c1 the results were AID504770 0.15.
`Cc1cc(C)c(S(=O)(=O)NC(CC(=O)O)c2ccccc2)c(C)c1` (configuration not stated) gave AID504770 -0.05 and CapD inh 0.18.
For O=C1/C(=C/c2ccc(-c3ccc(Br)cc3)o2)C=C(c2ccccc2)N1c1cccc(O)c1 the results were CapD inh 0.35.
`COc1ccc(C2=C(N3CCN(c4ccccn4)CC3)c3ccccc3C2=O)cc1` gave AID504770 1.1 and CapD inh 0.24.
`CC(C)C(=O)C1=Cc2cc([N+](=O)[O-])ccc2OC1N1CCOCC1` (configuration not stated) gave CapD inh -0.23.
Cc1cc(Nc2ccccc2)nn1C(=O)c1ccccc1 was read as AID504770 -0.05 and CapD inh -1.6.
`CN(CC(=O)Nc1nnc(C2CC2)s1)S(=O)(=O)c1ccc(Cl)cc1` gave AID504770 1.5.
CN1C(=O)/C(=C\c2c(Cl)nc3sccn23)N(C)C1=S was read as AID504770 0.75.
`O=C(Cn1ncc2ccccc21)Nc1ccc(Br)cc1F` gave AID504770 -0.3 and CapD inh -0.38.
COc1ccc(Cl)cc1C(=O)N/N=C/c1ccc(OCc2ccccc2)c(OCc2ccccc2)c1 was read as CapD inh 1.1.
Screening CC(=O)NCCn1c(SCC(=O)NCc2ccccc2)nc2ccccc2c1=O returned AID504770 -0.5 and CapD inh 2.1.
Screening CN(C(=O)c1ccc(NC(=O)c2ccco2)cc1)C1CCCCC1 returned AID504770 -0.95.
Cc1cc(C)c2c(=O)n(C(=O)c3ccccc3)sc2n1 was read as AID504770 -1.1 and CapD inh -0.7.
Screening CN(Cc1ccccc1)C(=O)COC(=O)c1ccc(Cl)c(N)c1 returned AID504770 0.15 and CapD inh 34.
Cc1ccc(S(=O)(=O)N2CC(=O)NC(=O)C2)cc1 was read as CapD inh 0.67.
For O=C(N/N=C/c1ccccc1)c1cccc(S(=O)(=O)N2CCCC2)c1 the results were AID504770 -0.55.

Entries listed so far with a furan ring, fused or not (6):
For COC(=O)c1c(C)oc2ccc(N(C(=O)c3ccc(C)cc3)S(=O)(=O)c3ccc(Cl)c([N+](=O)[O-])c3)cc12 the results were CapD inh -1.1.
O=C(/C=C/c1ccco1)Nc1nc(-c2ccc3c(c2)OCO3)cs1 was read as AID504770 1.1 and CapD inh -0.05.
Screening Cc1ccc(C(=O)N/C(=C\c2ccco2)C(=O)NCc2ccco2)cc1 returned AID504770 -0.8 and CapD inh -2.2.
Screening CCCCN(C)C(=O)c1cc2cc3ccc(OC)cc3nc2o1 returned AID504770 -0.3 and CapD inh 7.
For O=C1/C(=C/c2ccc(-c3ccc(Br)cc3)o2)C=C(c2ccccc2)N1c1cccc(O)c1 the results were CapD inh 0.35.
Screening CN(C(=O)c1ccc(NC(=O)c2ccco2)cc1)C1CCCCC1 returned AID504770 -0.95.

(list continues)
Screening O=C(/C=N/O)Nc1ccccc1F returned AID504770 -0.3 and CapD inh -0.21.
`C=C(C)Oc1ccccc1OCC(=O)C(C)(C)C` gave AID504770 -0.55 and CapD inh 0.38.
COc1ccc(C2CC(=O)C3=C(C2)NC(C)=C(C(=O)OC(C)C)C3c2ccccc2Cl)cc1OC (configuration not stated) was read as CapD inh 7.3.
Cc1ccc2c(c1)N(C(=O)CSc1nc3ccccc3o1)C(C)(C)c1ssc(=S)c1-2 was read as CapD inh -0.37.
S=c1[nH]cc(-c2ccccc2)n1-c1ccccc1 was read as AID504770 -0.2.
COc1ccc(N2C(=O)c3ccc(Oc4ccccc4OC)cc3C2=O)cc1 was read as CapD inh 0.14.
`O=C(C1CCCN1S(=O)(=O)c1ccc2nc(-c3ccccc3)[nH]c2c1)N1CCOCC1` (configuration not stated) gave AID504770 -0.8 and CapD inh 0.19.
Screening CCOC(=O)CCN1C(=O)c2ccccc2Sc2ncccc21 returned AID504770 -0.4 and CapD inh 0.27.
Screening CN(C(=O)C(NS(=O)(=O)c1ccc2c(c1)CCC(=O)N2)c1ccccc1)C1CCCCC1 (configuration not stated) returned AID504770 1.1 and CapD inh -0.89.
`O=c1[nH]ncc2c3ccccc3n(Cc3ccc(F)cc3)c12` gave AID504770 0.8 and CapD inh -0.37.
COC(=O)c1cc(OC)c(OC)cc1NC(=S)N1CCN(c2ccccn2)CC1 was read as AID504770 -0.45 and CapD inh -0.7.
Screening COc1ccc(N(CC(=O)N2CCN(c3ccccc3F)CC2)S(=O)(=O)c2c(C)nn(C)c2C)cc1 returned AID504770 0 and CapD inh -0.42.
`CN(CC(=O)Nc1ccc(Cl)cc1)C1CCCCC1` gave AID504770 1.5.
Screening CC1=C(C(=O)Nc2cccc(Cl)c2)C(c2ccc(C(C)C)cc2)NC(=O)N1 (configuration not stated) returned CapD inh -0.38.
CC1(C)NC(=O)N(CC(O)Cn2c3ccccc3c3ccccc32)C1=O (configuration not stated) was read as AID504770 0.25 and CapD inh 1.5.
For Cc1ccccc1Cn1c(=O)n(CCC(C)C)c(=O)c2cccnc21 the results were AID504770 1.6 and CapD inh 0.26.
